Bm FixLJ act – activators of Burkholderia fixLJ two-component system, primary screen, B. multivorans, GFP reporter. B. multivorans fixK-promoter GFP reporter, 18 h; active compounds read high. z-score (concentration not given with the values). hit rate 0.3% among 29,000;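 active means replicate mean overnight rise in green fluorescent reporter signal, 3 or more SD over negative controls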;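 further: score is relative to vehicle wells of the plate; 300 nL library stock went into each well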
* = called active by the depositor; & = joins results of further samples. These rows are one share of the data. The share of hits here may be higher or lower than overall.

SMILES	Bm FixLJ act
CC(CNC(=O)c1ccc(CSc2nc3ccncc3n2Cc2ccccc2)cc1)c1ccccc1 (stereo not drawn)	-4.04
O=c1oc2ccc3ccccc3c2cc1-c1nnc(Nc2cccc(C(F)(F)F)c2)s1	1.15
Cc1cnn(CC2CCN(C(=O)Nc3snnc3-c3ccccc3)CC2)c1	-1.6
COC(=O)c1cc2oc3ccccc3c2n1CC(=O)Nc1ccc(Cl)cc1F	-0.36
COC(=O)c1cccc(CN2C(=O)SC(Nc3ccc(C)cc3)C2=O)c1 (stereo not drawn)	-1.52
CC(C)N(Cc1nc(-c2ccc(Cl)cc2)no1)C(=O)c1ccc(C(C)(C)C)cc1	2.03
COc1ncnc(C)c1-c1ccc(C(=O)N(C)C(C)c2ccncn2)cc1 (stereo not drawn)	-0.81
CCOc1cc(C(=O)NCc2ccc3c(c2)CCN3C(=O)CC)cc(OCC)c1OCC	-0.33
Cc1cccc(NC(=O)Cn2cc(C(=O)c3ccccc3)c3ccccc32)c1C	-1.34
CCc1ccc(CNC(=O)CSc2cc(=O)n(C)c3ccc(Cl)cc23)cc1	-0.74
O=C(c1ccc2c(c1)N(Cc1ccc(Cl)cc1)C(=O)c1ccccc1S2(=O)=O)N1CCCCC1	0.84
CCn1c2ccccc2c2cc(CN3CCN(Cc4cccc(Cl)c4)CC3)ccc21	-0.61
CCOc1ccccc1NC(=O)C(=O)Nc1ccc2nc3n(c(=O)c2c1)CCCCC3	-2.74
Cc1[nH]nc(CCC(=O)N2CCC(N3CCOCC3)C(O)C2)c1C (stereo not drawn)	1.16
O=C(NCc1nc2ncccc2o1)c1csc(Cc2ccccc2)n1	-0.55
CN(C)S(=O)(=O)CC1CN(C(=O)Cc2cccc(Cl)c2)CC1O (stereo not drawn)	-2.29
Cc1nonc1CNC(=O)c1cccc(N2CCNC2=O)c1	0.39
CSc1cccc(NS(=O)(=O)c2ccc3[nH]cc(C(=O)N4CCCC4)c(=O)c3c2)c1	-0.26
Cc1cccn2c(CC(=O)N3CC[C@@](O)(C4CCOCC4)C(C)C3)cnc12 (stereo partly drawn)	0.53
Cc1ccc2c(c1)NC(c1cccnc1)=NC(c1ccc(F)cc1)=N2	-0.91
Cn1c(CNC(=O)c2ccc3nccn3c2)nc2cc(C(F)(F)F)ccc21	-1.84
NC(Cc1ccccc1)c1nc(CC2CC2)nn1CC(=O)NC1CCCC1 (stereo not drawn)	-0.04
Cc1ccc(NC(=O)Cn2c(=O)n(CCCCCC(=O)NCc3ccc(F)cc3)c(=O)c3sccc32)c(C)c1	-1.37
COc1cccc(C(=O)NC2CCOCC2OCc2ccccc2)c1OC (stereo not drawn)	-1.95
Cc1ccc(Cl)cc1NC(=O)N1CCN(C)c2ncccc21	0.74
COCCNS(=O)(=O)c1cc(C(=O)O)cc(-c2ccccc2OC)c1	0.77
Cc1cc(C)c2oc(-c3ccc(C)c(NC(=O)/C=C/c4ccco4)c3)nc2c1	-3.73
O=C(NC1COCC1Cc1ccncc1)c1cccc(C(F)(F)F)c1 (stereo not drawn)	-1.4
COc1cc2c(cc1OC)C1(CCN(C(=O)C3CCCO3)CC1)OCC2 (stereo not drawn)	0.28
O=C(Cc1ccccc1)Nc1sc2c(c1C(=O)Nc1ccccc1Cl)CCCCC2	-0.49
Cc1ccc(CN(Cc2ccco2)C(=O)COc2ccccc2C)cc1	0.35
O=C(Nc1cccc(NC(=O)c2ccc(Br)cc2)c1)c1ccccc1	-2.39
Cc1ccc(Nc2cc(C)nc3nncn23)c(C)c1	0.58
CCOc1ccc(NC(=O)C2=C(C)C(=O)OC23CCC(C)CC3)cc1 (stereo not drawn)	-1.51
CCc1ccc2nc(C)cc(C(=O)NC3C4CCOC4C3COC)c2c1 (stereo not drawn)	-0.71
Cc1ncsc1CCN(C)Cc1cc(=O)n2ccsc2n1	-1.12
Cc1ccc(C(=O)Nc2ccc(-c3nc4ccccc4o3)cc2)cc1Cl	-0.36
Cc1nnsc1C(=O)N1CCC(c2cc(Cc3ccccc3)[nH]n2)CC1	-2.57
CS(=O)(=O)n1nc(-c2ccco2)nc1NCc1ccccc1Cl	-2.55
Cc1ccc(C)c(S(=O)(=O)c2cn(C)c3cc(F)c(F)cc3c2=O)c1	-1.13
CCC(C)S(=O)(=O)c1oc(-c2ccc(F)cc2)nc1S(=O)(=O)c1ccc(F)cc1 (stereo not drawn)	-0.78
O=C(NCc1ccccc1)c1cc2sccc2n1Cc1ccc(Cl)cc1	1.54
O=C(NCCN1CCN(c2ccccc2)CC1)Nc1cccc(Br)c1	0.03
COc1cc(NC(=O)C2=C(C)Nc3nnnn3C2c2ccc(SC)cc2)c(OC)cc1Cl (stereo not drawn)	-0.95
COc1ccc(NC(=O)C(Cc2ccccc2)NS(=O)(=O)c2ccc3c(c2)CCN3C(C)=O)cc1 (stereo not drawn)	-1.4
COCCNC(=O)CN1C(=O)COc2ccc(S(=O)(=O)N3CCCCCC3)cc21	-0.77
COc1ccccc1CNC(=O)Cc1c(C)c2cc3c(C)coc3c(C)c2oc1=O	-0.97
COc1ccccc1Oc1ccc(NC(=O)c2cc(C#N)c[nH]2)cn1	-0.02
COc1ccc(Cn2cc(C(=O)c3ccc(Cl)cc3)c(=O)c3cc4c(cc32)OCO4)cc1	-1.2
Cc1ccccc1OCC(=O)NCC1CCCN(C(=O)c2cccc(=O)[nH]2)C1 (stereo not drawn)	-0.91
COc1ccccc1-c1cccc(C(=O)N2CCc3nc[nH]c3C2)c1	-1.45
N#Cc1c(C(F)(F)F)cc(-c2cccs2)nc1SCC(=O)Nc1ccc(F)cc1	0.67
COc1cccc(NC(=O)CN2CCCN(S(=O)(=O)c3ccc(Br)cc3)CC2)c1	-0.35
CCCCN(CC)CCNC(=O)CN1C(=O)COc2ccc(S(=O)(=O)N3CCOCC3)cc21	-0.68
CCSc1ncc(Cl)c(C(=O)N(Cc2ccc(C(C)(C)C)cc2)C2CCS(=O)(=O)C2)n1 (stereo not drawn)	-0.66
COc1cccc(CNCCSc2nnnn2C)c1OCc1ccccc1	0.2
Cc1cccc(OCC(=O)N(Cc2sccc2C)C2CCS(=O)(=O)C2)c1 (stereo not drawn)	-1.71
CC(=O)c1cccc(NC(=O)Nc2sc3nc4n(c(=O)c3c2C)CCC(C)CC4)c1 (stereo not drawn)	-2.06
COC(=O)C(C)N1CCCn2nc(CCC(=O)N3CCOCC3)cc2C1 (stereo not drawn)	-1.6
O=C1CN=C(c2ccccc2Cl)c2cc([N+](=O)[O-])ccc2N1	-1.04
(more compounds)
SMILES	Bm FixLJ act
Cc1ccc(C2(O)CCN(C(=O)CCC(=O)N3CCCCCC3)CC2)nc1	-0.83
CN(Cc1csc(-c2ccccc2)n1)C(=O)CCc1csc(N)n1	-0.17
O=C(c1ccc2c(c1)N(Cc1ccccc1)C(=O)c1ccccc1S2(=O)=O)N1CCN(c2ccccc2)CC1	-0.27
Cc1ccc(OC2CN(Cc3nnc(C4CC(N)C4)n3C)C2)cc1 (stereo not drawn)	0.32
CCOC(=O)c1cc2c(=O)n3ccccc3nc2n(CC2CCCO2)c1=NC(=O)c1ccccc1Br (stereo not drawn)	-0.88
CCOC(=O)CSc1nc2sc3c(c2c(=O)n1-c1ccccc1)CCC(C(C)(C)C)C3 (stereo not drawn)	-0.97
COc1ccc(-c2oc3ncn4nc(COc5c(C)cccc5C)nc4c3c2-c2ccc(OC)cc2)cc1	-1.59
O=C(CCCc1c[nH]c2ccccc12)NC1COCC1Cc1ccncc1 (stereo not drawn)	0.43
O=C(Cn1c(=O)n(-c2ccc(Cl)cc2)c(=O)c2c3c(sc21)CCC3)c1ccccc1	0.74
COc1ccc2nc(CCN(C)S(=O)(=O)c3c(C)cc(C)c4nonc34)[nH]c2c1	0.66
Cc1ccc(N(CC(=O)Nc2cccc(Cl)c2)S(=O)(=O)c2cccs2)cc1	1.07
Cc1cccc(CCNC(=O)C2CCCN(S(=O)(=O)c3ccc4c(c3)oc(=O)n4C)C2)c1 (stereo not drawn)	-0.91
Cc1nonc1OCCNC(=O)Cc1nc2ccccc2[nH]1	-1.08
O=C1CCCN1CCCC(=O)N1CCCN(C(=O)C(F)(F)F)CC1	-0.47
Cc1ccc2oc(=O)c3cc(C(=O)N4CCN(c5ccccc5F)CC4)sc3c2c1	-1.89
CCSCCC(=O)N1CCC(c2nnc(CN3CCCC3)n2C)CC1	-0.01
COc1cc(NC(=O)CCS(=O)(=O)c2nc(-c3ccc4c(c3)OCO4)cc(C(F)(F)F)n2)cc(OC)c1OC	-1.08
CCC(C)NC(=O)c1sc2nc(C)c(C(=O)Nc3ccc(C)cc3C)c(-c3ccc(Br)cc3)c2c1N (stereo not drawn)	-1.04
CCOc1ccc(-c2csc(/C(C#N)=C/c3ccc(Br)cc3)n2)cc1	-1.24
Cc1cc(NCc2cccc(C(=O)N(C)C)c2)n2nc(C)c(C)c2n1	0.26
Cc1c(NC(=O)c2cc(-c3ccccc3O)on2)c(=O)n(-c2ccccc2)n1C	0.19
CNC(=O)CC1C(=O)NCCN1CC(C)=Cc1ccccc1 (stereo not drawn)	-0.41
Cc1ccc2oc(C(=O)Nc3ccc(S(=O)(=O)N4CCCCCC4)cc3)cc(=O)c2c1	-1.12
O=C(c1ccncc1)N1CC2CCC(C1)N(C(=O)Cc1ccncc1)C2 (stereo not drawn)	-0.34
CCN(C(=O)C1CCCN(S(=O)(=O)c2c(C)noc2/C=C/N(C)C)C1)c1cccc(C)c1 (stereo not drawn)	-0.73
Cc1nnc(CCNC(=O)c2cc(-c3ccccc3)n(C)n2)s1	0.87
Cc1noc(C)c1C(=O)Nc1ccc2nc(C(C)O)[nH]c2c1 (stereo not drawn)	-0.81
CCC(=O)N1CCc2[nH]cnc2C12CCN(C(=O)c1ccc(CO)o1)CC2	-0.82
O=C(c1cn(CCOc2ccc(Cl)cc2)c2ccccc12)C1CCCCC1	-2.56
O=C(c1n[nH]c2ccccc12)N1CCc2nc(-c3cccc(F)c3)[nH]c2C1	-1.33
CCCCN(CCCC)CCNC(=O)c1cn(C)c2ccc(S(=O)(=O)N3CCOCC3)cc2c1=O	-0.03
Cc1cccc(NC(=O)Cn2c(=O)n(CC3CCC(C(=O)NCCc4ccccc4)CC3)c(=O)c3ccccc32)c1C (stereo not drawn)	-0.53
Cc1ccc(CNC(=O)c2ccc(Nc3nc4ccccc4n4nnnc34)cc2)cc1	-1.61
Cc1ccccc1-c1nc(CN2C(=O)CN=C(c3ccccc3)c3ccccc32)c(C)o1	0.24
CCN(CC)C(=O)CSc1nc2c(c(=O)n(C)c(=O)n2C)n1Cc1ccccc1	-1.6
COc1ccc(C2CC(=O)c3c([nH]c(C(=O)OCc4ccccc4)c3C)C2)cc1OC (stereo not drawn)	1.13
Cn1c(=O)c2sccc2n2c(CCC(=O)Nc3ccc(F)cc3)nnc12	0.57
CCCN(CCO)C(=O)c1csc2nc(-c3ccc(CC)cc3)cn12	-0.72
CCCCN(CC)CCNC(=O)Cn1cnc2sc(C)c(S(=O)(=O)N3CCN(c4ccccc4OC)CC3)c2c1=O	-1.35
COc1cc(C(=O)N2CCCN(C(=O)CCn3cccn3)CC2)ccn1	-1.32

A portion taken from the entries so far:
SMILES	Bm FixLJ act
O=C(c1ccncc1)N1CC2CCC(C1)N(C(=O)Cc1ccncc1)C2 (stereo not drawn)	-0.34
CCN(C(=O)C1CCCN(S(=O)(=O)c2c(C)noc2/C=C/N(C)C)C1)c1cccc(C)c1 (stereo not drawn)	-0.73
Cc1nnc(CCNC(=O)c2cc(-c3ccccc3)n(C)n2)s1	0.87
Cc1noc(C)c1C(=O)Nc1ccc2nc(C(C)O)[nH]c2c1 (stereo not drawn)	-0.81
CCC(=O)N1CCc2[nH]cnc2C12CCN(C(=O)c1ccc(CO)o1)CC2	-0.82
O=C(c1cn(CCOc2ccc(Cl)cc2)c2ccccc12)C1CCCCC1	-2.56
O=C(c1n[nH]c2ccccc12)N1CCc2nc(-c3cccc(F)c3)[nH]c2C1	-1.33
CCCCN(CCCC)CCNC(=O)c1cn(C)c2ccc(S(=O)(=O)N3CCOCC3)cc2c1=O	-0.03
Cc1cccc(NC(=O)Cn2c(=O)n(CC3CCC(C(=O)NCCc4ccccc4)CC3)c(=O)c3ccccc32)c1C (stereo not drawn)	-0.53
Cc1ccc(CNC(=O)c2ccc(Nc3nc4ccccc4n4nnnc34)cc2)cc1	-1.61
Cc1ccccc1-c1nc(CN2C(=O)CN=C(c3ccccc3)c3ccccc32)c(C)o1	0.24
CCN(CC)C(=O)CSc1nc2c(c(=O)n(C)c(=O)n2C)n1Cc1ccccc1	-1.6
COc1ccc(C2CC(=O)c3c([nH]c(C(=O)OCc4ccccc4)c3C)C2)cc1OC (stereo not drawn)	1.13
Cn1c(=O)c2sccc2n2c(CCC(=O)Nc3ccc(F)cc3)nnc12	0.57
CCCN(CCO)C(=O)c1csc2nc(-c3ccc(CC)cc3)cn12	-0.72
CCCCN(CC)CCNC(=O)Cn1cnc2sc(C)c(S(=O)(=O)N3CCN(c4ccccc4OC)CC3)c2c1=O	-1.35

Next part
SMILES	Bm FixLJ act
COc1cccc(C(=O)NC2COCC2Cc2ccncc2)c1C (stereo not drawn)	0.63
COc1ccc(CCNC(=O)CCc2c(C)nc3cc(-c4ccc(Cl)cc4)nn3c2C)c(OC)c1	1.79
O=C(Nc1ccc(Cl)c(-c2nc3ccccc3o2)c1)c1cccc2c(Cl)cccc12	-1.51
Cc1ccn2c(Nc3ccc4c(c3)OCO4)c(-c3ccco3)nc2c1	-1.75
Cc1ccc(CN(C)S(=O)(=O)c2c(Cl)nc3sccn23)o1	1.01
CCOC(=O)C1=C[C@]2(CC)CCCN3CCc4c(n1c1ccccc41)[C@@H]32	-0.82&-2.33
Cc1ccc(C)c(N(C)C(=O)c2cn(C)c(=O)c3ccccc23)c1	-2.09
CC(=O)Oc1c(C)c(C)c2c(c1C)CCC(C)(CCCC(C)CCCC(C)CCCC(C)C)O2 (stereo not drawn)	-2.51
CC(=O)NC1CCN(Cc2nc(-c3cccc(Cl)c3)oc2C)CC1	-0.36
COc1cc(NC(=O)Cn2cc(S(=O)(=O)c3ccccc3)c(=O)c3ccccc32)cc(OC)c1	-0.89
Cn1c(-c2ccccc2Cl)nc2cc(C(=O)NCC(N)=O)cnc21	0.95
O=C(CSc1nc2c(oc3ccccc32)c(=O)n1Cc1ccco1)Nc1cccc(Cl)c1	-0.05
Cc1ccc(NC(=O)Cn2c(=O)n(Cc3ccc(F)cc3)c(=O)c3cccnc32)cc1C	-1.94
